# Source: PubChem BioAssay (PCMD)
# Calb biofilm kill: clotrimazole potentiators killing C. albicans biofilm, primary screen, 4-compound mixtures; 120,000 tested, 0.02% active; C. albicans biofilm persisters + clotrimazole, fluorescence viability; primary screen in compound mixtures of four per well; inhibition, % at 7.6 µM;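 active = inhibition above 30.3% in the primary screen of four-compound pools, then above 30% when the compound was retested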;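 also: compounds exposed to preformed 24 h biofilms for 48 h; the number belongs to the whole pool; some results filed as inactive read as strong as hits; inactives centre near 12; 0% = biofilm with clotrimazole alone and 100% = kill control; retested singly at about 60 µM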
#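 Assay system: C. albicans biofilms / Medium: RPMI/MOPS medium, pH 7.0 / Schedule: biofilm formation 24 h, compound exposure 48 h, 37 °C / Measured by: Alamar Blue fluorescence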
# * = called active by the depositor.
SMILES,Calb biofilm kill
COc1ccc(OC)c2sc(Cl)nc12,7.1
O=C(c1ccncc1)c1ccc([N+](=O)[O-])cc1,1.0
CCC(CC)C(=O)NCCCN1CCOCC1,-5.3
S=C(NCCc1ccccc1)NCC(c1ccco1)N1CCCCC1 (centres undefined),8.6
O=C(CCCc1nc2ccccc2s1)NCc1ccc(F)cc1,1.1
OCCCCc1nccc2c1[nH]c1ccccc12,14.1
CC(=O)c1nnn(-c2c(F)cccc2F)c1C,22.2
C#CCNC(=O)C1=C[C@@H](C2CC2)C[C@@H](OCCCCO)O1,15.3
Clc1cccc(Cl)c1-c1nnc2cccc(Cl)n12,12.7
Cc1cc(C)cc(NC(=S)/C(=C(\[O-])c2ccc(Cl)s2)[n+]2cccc(C)c2)c1,7.2
Cc1ccc(NC=C(S(=O)(=O)c2ccccc2)S(=O)(=O)c2ccccc2)cc1,-7.4
CCCCSc1nc2[nH]ncc2c(=O)[nH]1,13.4
Cn1cnc2c(=O)[nH]cc([N+](=O)[O-])c21,16.0
C[C@@H](C(=O)Nc1ccc2ccccc2c1)[C@H]1C[C@]1(C)[C@H](NC(=O)c1cccnc1)c1ccccc1,16.1
Nc1nnc(SCC(=O)OCC(=O)c2ccccc2)s1,5.7
CC1CN(c2nnc(NC(=O)c3ccccc3)s2)CC(C)O1 (centres undefined),13.1
O=C1CCCC2=C1C(c1ccccc1)C1C(=O)c3ccccc3C1=N2 (centres undefined),17.8
Cc1nn(C)cc1CNC(=O)/C=C/c1cnn(C)c1,2.9
CCCCOc1nc2c(c(=O)n(C)c(=O)n2C)n1C,24.9
COc1ccc(N2CC(C(=O)Nc3nnc(SCC(=O)NC(C)(C)C)s3)CC2=O)cc1 (centres undefined),15.4
Cc1cccc(NC(=O)c2cc(Cl)nc3ccccc23)n1,12.9
COc1cc(/C=C/C(=O)O)cc(S(=O)(=O)Nc2cc(Cl)c(Cl)cc2Cl)c1OC,20.3
Cc1nn(Cc2cccc(F)c2)c(C)c1NC(=O)c1c(Cl)cnn1C,6.7
CCOC(=O)c1cc(-c2ccc(OC)cc2)n(CCC(=O)NCCN2CCC(C)CC2)c1C,12.4
COCc1ccc(CN2CCCC(CO)(Cc3cccc(OC)c3)C2)o1 (centres undefined),32.1
Cc1cccc(C(=O)NNC(=O)CCC(=O)Nc2cccc(Cl)c2C)c1,7.7
CCOC(=O)C1(Cc2cccc(Cl)c2)CCCN(C(=O)c2ccc(C)nc2)C1 (centres undefined),8.1
C#CCOCCOCCOCCNc1nc(N2CCN(C(=O)[C@H](CCC(=O)O)n3cc(C(N)[C@H](C)CC)nn3)CC2)nc(N2CCN(C(=O)[C@H](Cc3ccc(O)cc3)n3cc(C(N)[C@H](C)CC)nn3)CC2)n1 (some centres undefined),13.0
CC1CCCC(NC(=O)C2CCC(CNc3c(N4CCCC4)c(=O)c3=O)CC2)C1C (centres undefined),19.8
COC(=O)c1cnn(-c2ccc(Cl)cc2)c1/C=N/NC(N)=S,16.3
COC(=O)C1=C(NC(=O)c2ccccc2C)CCS1,-7.8
Cc1cnc(C(=O)NC(C)CCc2ccccc2)cn1 (centres undefined),16.5
O=C(Nc1ccc2c(c1)OCCO2)c1oc2ccccc2c1NC(=O)C1CC1,11.3
Cc1cc(C)c(C)c(S(=O)(=O)NCc2ccc(C(=O)N3CCCCC3)cc2)c1C,17.6
CCCCC(=O)N/N=C(C)/C=C/c1ccccc1F,13.7
CCC(=O)N(C)CCc1cc2c(c(OC)c1/C=N/NC(=O)c1ccncc1)OCO2,14.6
COc1ccc(NS(=O)(=O)c2ccc(N)cc2)nn1,21.3
CCOC(=O)c1cc(-c2csc(COc3ccccc3)n2)on1,20.8
CCc1nc(N2CCN(S(C)(=O)=O)CC2)c2c3c(sc2n1)CCCC3,21.5
COc1cc(/C=C2\SC(=O)N(c3cccc(Cl)c3)C2=O)cc([N+](=O)[O-])c1O,26.1

# Of the compounds above, 2 contain a thiophene ring, fused or not:
SMILES,Calb biofilm kill
Cc1cc(C)cc(NC(=S)/C(=C(\[O-])c2ccc(Cl)s2)[n+]2cccc(C)c2)c1,7.2
CCc1nc(N2CCN(S(C)(=O)=O)CC2)c2c3c(sc2n1)CCCC3,21.5

# The results go on.
SMILES,Calb biofilm kill
CCn1c(SCC(=O)N2CCN(C(=O)c3ccco3)CC2)nnc1C(C)C,14.0
COc1ccc(/C=N/NC(=O)c2cc(C3CC3)[nH]n2)cc1OC,13.0
NC(=O)N/N=C/c1c(F)c(F)c(F)c(F)c1F,11.7
Cc1nn(C)c(C)c1NC(=O)Nc1ccc(Cl)c(Cl)c1,13.9
COC(=O)c1c(NC(C)=O)sc(C)c1C,17.8
CC(C)OC(=O)c1ccc(N)cc1,24.8
CCOc1cc(N2CCOCC2)c(OCC)cc1NC(=O)CN1C(=O)C2CC=CCC2C1=O (centres undefined),5.7
Cc1n[nH]c(C)c1CCC(=O)N/N=C/c1cccs1,3.0
C/C(CC(=O)Nc1ccccn1)=N\NC(=O)c1ccc(C)cc1,8.8
CN1CCC(OC(=O)c2cccc(Cl)c2)CC1,-0.3
COc1cc(CCC(=O)OCC(=O)NCC2CCCCC2)cc(OC)c1OC,9.5
Cc1cccn2c(CNC3CCCc4ccccc43)c(C(=O)N3CCOCC3)nc12 (centres undefined),2.5
CCSc1nc2c(c(=O)[nH]1)C(c1cccnc1)C(C(=O)OC(C)C)=C(C)N2 (centres undefined),10.8
CN(CCc1cnn(C)c1)Cc1cn[nH]c1-c1ccc(-c2ccccc2)cc1,9.6
Cc1cccc(C)c1Nc1c(-c2ccc(N3CCOCC3)cc2)nc2ncccn12,7.1
CC(C)(C)C(=O)COC(=O)CCc1nc2ccccc2[nH]c1=O,29.9
Cc1cc(NC(=O)CSc2nc3cc(C(=O)NCCCOC(C)C)ccc3c(=O)n2Cc2ccco2)no1,5.9
Clc1cccc(-c2cc3nc4c(c(N5CCN(c6cnccn6)CC5)n3n2)CCCC4)c1,-6.5
Cc1cc(C)c(C(=O)COC(=O)c2cccnc2Cl)c(C)c1,14.6
Nc1cc(N2CCOCC2)c(Cl)cc1[N+](=O)[O-],7.6
O=C(Cn1cnc2c(cnn2-c2ccc(Cl)cc2)c1=O)N1CCN(c2ccccc2)CC1,15.3
Cc1ncoc1C(=O)N1CCCC(C(=O)c2ccc(-c3ccccc3)c(F)c2)C1 (centres undefined),6.0
Cc1nnc(Cl)c2nn(-c3ccccc3)c(C)c12,7.8
NC(=O)N/N=C/C=C/c1ccccc1,7.6
Cc1cccc(NC(=O)c2c(-c3ccccc3)noc2C)n1,13.2
CN(C)S(=O)(=O)N1CCCC(C(=O)c2ccc(-c3ccccc3)c(F)c2)C1 (centres undefined),8.0
Cc1cc(C(=O)CN2CCC(C)CC2)c(C)n1-c1ccccc1F,9.0
COc1ccc(C2=NN(c3nc(C)cc(C)n3)C(=O)C2)cc1,0.7
CCN(NC(=O)C(O)(c1ccccc1)c1ccccc1)C(=O)c1ccccc1,17.6
Oc1ccc(/C=N/NC(=S)N/N=C/c2ccc(O)cc2)cc1,5.1
CCN(CC)C(=O)CSc1nnc2nnc3cc(C)ccc3n12,5.2
O=C(c1ccoc1)N1CCC(CO)(CCc2ccccc2)CC1,14.5
CCCCNC(=O)c1cc(C)nc2ccccc12,14.8
O=S(=O)(Nc1ccc(Cc2ccncc2)cc1)c1ccc(Cl)cc1,23.0
COc1cc(O)c(C(CCN2CCCCC2)c2cc(OC)c(OC)c(OC)c2)c(OC)c1 (centres undefined),4.8
COc1ccc(-c2[nH]c(-c3cc(OC)c4c(c3)OCO4)nc2-c2ccccc2)cc1,8.6
COC(=O)N1CCN(c2ccc(C)c(C)c2)CC1,14.9
CC(=O)N/C(=C\c1ccccc1)C(=O)N1CCOCC1,25.4
O=c1oc2ccccc2c(Nc2cccc3cccnc23)c1[N+](=O)[O-],6.0
CCNC(=O)COC(=O)c1cc(-c2ccco2)nc2ccccc12,19.1

# Arranged by length of the SMILES (lowest first): some entries from above.
SMILES,Calb biofilm kill
NC(=O)N/N=C/C=C/c1ccccc1,7.6
Cc1nnc(Cl)c2nn(-c3ccccc3)c(C)c12,7.8
CC(=O)N/C(=C\c1ccccc1)C(=O)N1CCOCC1,25.4
O=c1oc2ccccc2c(Nc2cccc3cccnc23)c1[N+](=O)[O-],6.0

# Next structures
SMILES,Calb biofilm kill
Cc1nnc(SCc2ccccc2CSc2nnc(C)s2)s1,27.2
COc1ccccc1C1/C(=C(/O)c2ccc(C)cc2)C(=O)C(=O)N1Cc1ccco1 (centres undefined),-4.4
NC(=O)C1CCN(Cc2nc(-c3cccs3)no2)CC1,9.1
C/C(=N\NC(=O)c1cnccn1)c1ccc([N+](=O)[O-])cc1,9.0
COc1ccc(/C=N/NC(=O)C2C(=O)NCC2c2ccccc2)c(OC)c1 (centres undefined),8.2
COc1ccccc1CNC(=O)/C=C/C(=O)O,24.1
CCN(CC)CCN1C(=O)C(O)=C(C(=O)c2cc3cccc(OC)c3o2)C1c1cccs1 (centres undefined),10.3
CCCCCCCC(=O)N1c2ccccc2NC(=O)C1CC(=O)Nc1ccc(C(=O)O)cc1 (centres undefined),10.7
CCOC(=O)NC(=S)Nc1ccc(OC)cc1,18.8
O=C(NNc1ccc([N+](=O)[O-])cc1)C1C2CCCCC21 (centres undefined),12.9
O=C(COc1nc2ccccc2nc1N1CCOCC1)Nc1ccc(S(=O)(=O)N2CCCC2)cc1,8.7
CC(C)CC(=O)N=Nc1c(O)[nH]c2ccccc12,13.7
CCCCN(C)C(=O)c1nc2ccccn2c1CNC1CCC1,21.7
COc1ccc(OCCC(=O)OCC(=O)Nc2ccc(Br)cc2)cc1,18.8
C=CCNC(=S)NNC(=O)c1ccccc1OCC,-12.4
CC1(C)Cc2ccccc2-c2nnc(-c3ccc4ccccc4n3)n21,19.9
CC1CC(=O)Nc2ccccc2N1C(=O)CN1CCN(C=O)CC1 (centres undefined),5.7
CCN(CC)c1cc(Cl)c2nonc2c1N,16.7
CCOc1ccc(NC(=S)NNC(=O)CC(C)O)cc1 (centres undefined),10.7
Cc1ccc(NC(=O)COC(=O)C(NS(=O)(=O)c2ccc(Cl)cc2)C(C)O)cc1 (centres undefined),14.6
CCC(=O)Nc1cccc(C2=NOC3(C2)C[C@@H](C(N)=O)N(C(=O)c2ccc(OC)cc2)C3)c1 (some centres undefined),18.3
COc1ccc(C(=O)Nc2ccc(Oc3nc(C)nc4sc(-c5ccccc5)cc34)cc2)cc1OC,16.1
CC(C(=O)NNS(=O)(=O)c1cccc(C(F)(F)F)c1)n1nnc(N2CCOCC2)n1 (centres undefined),6.8
O=C(CSc1nnc(-c2ccccc2Cl)o1)Nc1ccccn1,-2.3
O=C(O)CCCCCNC(=O)c1ccc(C(=O)NCCCCCC(=O)O)cc1,23.9
CCOC(=O)c1c[nH]c(=S)n1C,17.6
CN1CCN(C(=S)c2cn(Cc3ccc(Br)cc3)c3ccccc23)CC1,16.9
Cc1ccc(N=C2SC(C(=O)NCCc3ccccc3)CC(=O)N2C)cc1C (centres undefined),-10.9
COc1ccc(C(=O)Nc2ccc(-c3nnn(CC(=O)N4CCN(C(=O)c5ccco5)CC4)n3)cc2)cc1,-9.7
Cc1ccc(-n2c(CNc3cccc(Cl)c3)n[nH]c2=S)cc1,6.4
COc1ccc(CNC(=O)COC(=O)/C=C/c2cccc(Br)c2)cc1OC,14.9
Cc1cc(C)nc(N2CCC(C(=O)NCc3ccccc3)CC2)n1,9.7
Cc1cccc(N2CCN(C(=O)CC(NC(=O)c3ccccc3Cl)c3ccccc3)CC2)c1C (centres undefined),14.4
O=C(/C=C/c1cc([N+](=O)[O-])ccc1OC(F)F)Nc1ccc(OC(F)F)cc1,14.5
COCCNC(=O)CSc1c2c(nc3ccc(Cl)cc13)CCCC2,6.6
O=C(CN(C(=O)c1csnn1)c1cccc2c1CCCC2)NC1CCCC1,24.3
CCN1CCN(c2cc(C)c3cc(NC(=O)c4cccs4)ccc3n2)CC1,17.4
COc1ccc(N(CC(=O)N/N=C/c2ccc(-c3ccc([N+](=O)[O-])cc3)o2)S(=O)(=O)c2ccc(C)cc2)cc1,3.0
COc1ccc(C(=O)CCN2CCc3cc(OC)c(OC)cc3C2)cc1,-0.9
CC1CC(C)CN(C(=O)c2cc3cc(Br)cc(Br)c3o2)C1 (centres undefined),-4.9

# Compounds above that contain a COOH group (five):
SMILES,Calb biofilm kill
COc1cc(/C=C/C(=O)O)cc(S(=O)(=O)Nc2cc(Cl)c(Cl)cc2Cl)c1OC,20.3
C#CCOCCOCCOCCNc1nc(N2CCN(C(=O)[C@H](CCC(=O)O)n3cc(C(N)[C@H](C)CC)nn3)CC2)nc(N2CCN(C(=O)[C@H](Cc3ccc(O)cc3)n3cc(C(N)[C@H](C)CC)nn3)CC2)n1 (some centres undefined),13.0
COc1ccccc1CNC(=O)/C=C/C(=O)O,24.1
CCCCCCCC(=O)N1c2ccccc2NC(=O)C1CC(=O)Nc1ccc(C(=O)O)cc1 (centres undefined),10.7
O=C(O)CCCCCNC(=O)c1ccc(C(=O)NCCCCCC(=O)O)cc1,23.9

# (further entries)
SMILES,Calb biofilm kill
CCN(c1ccccc1)S(=O)(=O)c1ccc(C(=O)OC(C)C(=O)NCCC2=CCCCC2)cc1 (centres undefined),14.2
O=C(Nc1cc([N+](=O)[O-])ccc1Cl)C1CC1,14.5
CC(=O)N(C)c1ccc(NC(=O)Nc2ccccc2C)cc1,7.3
FC(F)(F)COc1ccc(-c2nnc(SCc3c(Cl)cccc3Cl)o2)cn1,11.8
COc1ccc(OCC(=O)N/N=C(\CCC(=O)O)c2cccs2)cc1,11.7
N#C/C(=C\C=C\c1ccccc1)c1nc(-c2ccc3c(c2)OCO3)cs1,-5.8
COc1ccccc1N(C)S(=O)(=O)c1ccc(C(=O)NCc2ccc3c(c2)OCO3)cc1,12.6
O=C(Cc1ccccc1)N1CCN=C1SCc1ccc([N+](=O)[O-])cc1,6.7
Cc1ccc(C)c(N2CCN(C(=O)C34CC5CC(C3)CC(n3nnc(C)n3)(C5)C4)CC2)c1,13.7
COCCn1c(SCC(=O)c2[nH]c(C)c(C(C)=O)c2C)nc2ccccc2c1=O,21.8
CCCNC(=O)N1c2ccccc2Sc2ccccc21,12.9
CCCCNC(=O)CCCCn1c(=S)[nH]c2c([nH]c3ccc(OC)cc32)c1=O,13.2

# A portion of the library; rates above refer to the full screens.
